RE007 growth inh = qHTS Assay for Inhibitors of the HIV-1 protein Vpr; S. pombe RE007 Vpr strain, BacTiter-Glo ATP luminescence, 24 h; control for the full effect not named in the record; Potency, µM (series often up to 92.2 µM), for the others: top-dose activity change, negative = less growth; 0.21% of 360,000 active; AID 651644, 2012; active = well fitted falling curve with a large enough effect; inconclusive = small, poorly fitted or top-dose-only effect; inactive = no such curve, though single readings can be large or run the other way;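 also: % is scaled to controls: 0 for no effect and ±100 for the full control effect; nearly all actives have a fitted effect of over 50% in size; the assay follows cell death caused by Vpr and the record does not say whether a fall means rescue or toxicity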
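Fission yeast RE007 carrying one integrated HIV-1 vpr copy, seeded at OD 0.01 in PMG+AL medium with 23 nL pinned compound. Grown 24 h at 30 degrees; viability read by BacTiter-Glo luminescence after 5 min.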
Cruzain noTriton = qHTS Assay for Promiscuous and Specific Inhibitors of Cruzain (without detergent); purified cruzain, Z-FR-AMC fluorescence, no detergent; Potency, µM, for inactives: max response, negative = inhibition, actives largely listed as inhibitors; 2.3% of 200,000 active; AID 1476, 2009;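 also: plate controls were enzyme without inhibitor for no effect and buffer without enzyme for full effect; nearly all actives have a fitted effect of over 40% in size; top concentration of the series not given in the record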
Target sequence (P25779 123-467 limits assumed): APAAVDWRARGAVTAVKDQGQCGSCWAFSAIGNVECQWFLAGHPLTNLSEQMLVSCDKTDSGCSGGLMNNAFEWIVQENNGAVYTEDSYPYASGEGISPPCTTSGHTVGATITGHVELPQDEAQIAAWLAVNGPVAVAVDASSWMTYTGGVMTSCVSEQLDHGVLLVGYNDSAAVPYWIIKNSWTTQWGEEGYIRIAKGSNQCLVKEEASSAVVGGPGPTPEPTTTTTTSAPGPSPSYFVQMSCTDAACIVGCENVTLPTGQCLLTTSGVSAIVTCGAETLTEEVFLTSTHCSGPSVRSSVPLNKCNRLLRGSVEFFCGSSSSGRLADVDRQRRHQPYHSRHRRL
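Detergent-free condition (0.00005% Triton X-100) in acetate buffer pH 5.5 with DTT. 1.5 nM enzyme and compound were pre-mixed 15 min, then 2 uM Z-FR-AMC substrate added; reaction progress from fluorescence change between first and third reads (60 s).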
SARS PLpro yeast = qHTS of Yeast-based Assay for SARS-CoV PLP; AID 485353, 2010; 0.19% of 330,000 active; Potency, µM (highest dose often 32.9 µM), for inactives: top-dose activity, positive = growth rescue; S. cerevisiae expressing SARS-CoV PLpro, growth rescue; control for the full effect not named in the record; active means well fitted rising curve with a large enough effect; inconclusive means small, poorly fitted or top-dose-only effect; inactive means no such curve, though single readings can be large or run the other way; also: 0% is about no effect; nearly all actives have a fitted effect of over 55% in size; growth read by luminescence after 48 h
Lassa entry inh = qHTS for Inhibitors of binding or entry into cells for Lassa Virus | Lassa virus pseudotype entry inhibition, cell reporter; control for the full effect not named in the record | 1.2% of 300,000 active | AID 540256, 2011 | Potency, µM (top dose mostly 37.9 µM), inactives show at the top dose activity change, negative = inhibition, most hits filed as inhibitors; active means well fitted inhibition curve with a large enough effect; inconclusive means small, poorly fitted or top-dose-only effect, or effect the other way; inactive means flat fitted curve, though single readings scatter; tested in HEK293 cells; also: % is scaled to controls: 0 for no effect and ±100 for the full control effect; nearly all actives have a fitted effect of over 50% in size; luciferase read-out
2A StopGo = High Throughput Screening for Foot and Mouth Disease Virus Antivirals; Potency, µM (doses to about 57.9 µM), without a hit: at the top dose signal change, negative = less light; human cells with a luciferase reporter of 2A StopGo recoding; control for the full effect not named in the record; 1.2% of 410,000 active; active = well fitted falling curve with a large enough effect; inconclusive = small, poorly fitted or top-dose-only effect; inactive = no such curve, though single readings can be large or run the other way; tested in HEK293T cells; also: % is scaled to controls: 0 for no effect and ±100 for the full control effect; nearly all actives have a fitted effect of over 45% in size; luciferase light after 4 h
Marburg entry inh = qHTS for inhibitors of binding or entry into cells for Marburg Virus | 1.8% of 300,000 active | Potency, µM (top dose mostly 37.8 µM), without a hit: top-dose activity change, negative = inhibition, actives largely listed as inhibitors | Marburg virus pseudotyped entry inhibition, cell reporter; control for the full effect not named in the record; about a third of the inactives were read at about 46 µM; active = well fitted inhibition curve with a large enough effect; inconclusive = small, poorly fitted or top-dose-only effect, or effect the other way; inactive = flat fitted curve, though single readings scatter; tested in HEK293 cells; about a fifth of its hits are not listed in these tables; also: % is scaled to controls: 0 for no effect and ±100 for the full control effect; luciferase read-out
Cruzain Triton = qHTS Assay for Promiscuous and Specific Inhibitors of Cruzain (with detergent); Cruzipain (Trypanosoma cruzi), P25779; purified cruzain, Z-FR-AMC fluorescence, 0.01% Triton; Potency, µM, for inactives: max response, negative = inhibition, actives largely listed as inhibitors; 0.43% of 200,000 active; AID 1478, 2009;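 also: plate controls were neutral wells for no effect and buffer without enzyme for full effect; nearly all actives have a fitted effect of over 40% in size; top concentration of the series not given in the record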
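Cruzain (1.5 nM) preincubated 15 min at RT with compound in 100 mM sodium acetate pH 5.5, 5 mM DTT, 0.01% Triton X-100. Reaction started with 2 uM Z-FR-AMC; AMC fluorescence (ex 360/em 450 nm) change over 60 s gave rate.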
NS1 function inh = qHTS Assay for Inhibitors of Influenza NS1 Protein Function; S. cerevisiae slowed by influenza A NS1, growth recovery by OD600; Potency, µM (doses to about 46.1 µM), inactives show at the highest dose activity, positive = more growth; 0.4% of 270,000 active; active means well fitted rising curve with a large enough effect; inconclusive means small, poorly fitted or top-dose-only effect; inactive means no such curve, though single readings can be large or run the other way; also: nearly all actives have a fitted effect of over 50% in size
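In this qHTS, NS1 from influenza A is expressed in budding yeast, where it slows growth. Cells are switched from glucose to 2% galactose medium (pH 6.0, -URA), treated with compound, and growth recovery is read at OD600.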
* = called active by the depositor; ? = inconclusive; nt = no result given; & = joins results of further samples; ! = repeats disagree; [ ] = dose if it differs, or a comment. Unless noted, calls follow the shape of the dose curve; as a rule, active = well fitted curve in the direction sought with a large enough effect; inconclusive = small, poorly fitted or top-dose-only effect, or another doubt; inactive = no such curve, though single readings can be large; an effect the other way counts as inactive or inconclusive. Potency is read from the fitted curve at half-maximal effect.

SMILES	RE007 growth inh	Cruzain noTriton	SARS PLpro yeast	Lassa entry inh	2A StopGo	Marburg entry inh	Cruzain Triton	NS1 function inh
CC1(C)CC(=O)c2sc(NS(=O)(=O)Cc3ccccc3)nc2C1	-2%	-16%	12%	26%	56%[activator]	12%	-7.6%	7%
Cc1cccc(C)c1-n1c(SCC(=O)NCc2ccco2)nc2ccccc2c1=O	-12%	4%	7%	-21%	-21%	0%	0.8%	9%
Cc1ccnc(SC2CC(=O)N(c3ccc(Cl)cc3)C2=O)n1 (stereo unspecified)	6%	nt	-9%	nt	0%	nt	nt	0%
O=C(O)c1ccc(N/N=C/c2cccc(C(F)(F)F)c2)cc1	?	nt	-3%	nt	39%[activator]	nt	nt	-81%
Cc1cc(NC(=O)CS(=O)(=O)Cc2ccccc2)no1	5%	nt	0%	6%[46.1 µM]	5%	0%[46.1 µM]	nt	-2%
COc1ccc(CCNC(=O)CCCCCNc2nc(=S)[nH]c3ccccc23)cc1OC	-11%	-7%	-7%	?	0%	?	-1.1%	-1%
Cc1nc2ccccc2c(C)c1CC(=O)N(C)CC(=O)Nc1cccc(F)c1	-19%	nt	-3%	-20%	-28%	-8%[46.1 µM]	nt	nt
CCN(CC)CCN1C(=O)C(=O)/C(=C(/O)c2ccc(OC(C)C)cc2)C1c1ccncc1 (stereo unspecified)	0%	-7%	9%	1%	-6%	?	0.3%	11%
COc1ccc(OCC(=O)N2CCN(S(=O)(=O)c3ccc(Cl)cc3)CC2)cc1	5%	-5%	-4%	?	nt	2%	2.7%	-5%
Cc1ccccc1CSc1ccc(S(=O)(=O)N2CCCC2)cn1	1%	nt	-6%	-25%	-24%	?	nt	nt
CC(C)CC(=O)Nc1nnc(CCc2ccccc2)s1	-6%	nt	-1%	nt	24%	nt	nt	-6%
C=C1C(C)C2C(Cc3ccccc3)NC(=O)C23OC(=O)/C=C/C(O)CCCC(C)C/C=C/C3C1O (stereo unspecified)	-19%	nt	nt	-18%[46.1 µM]	?	?	nt	nt
CC(C)(C)NC(=O)NC(=O)CN1CCN(Cc2ccccc2)CC1	-16%	nt	2%	-12%	0%	0%	nt	nt
CCOC(=O)C1CCN(C(=O)Nc2ccc3nc(-c4ccco4)c(-c4ccco4)nc3c2)CC1	-22%	?	2%	-3%	?	?	14µM*	21%
COc1cccc(N2CCN(c3ccc4nnc(CCC(=O)Nc5ccccn5)n4n3)CC2)c1	0%	nt	-7%	-4%[46.1 µM]	-26%	4%[46.1 µM]	nt	1%
CCCCN(CCCC)CCCNC(=O)c1cc(-c2ccc(Cl)s2)nc2ccccc12	nt	23%	nt	16%[46.1 µM]	-22%	?	-1.2%	nt
FC(F)(F)c1cccc(NC(=S)N2CCN(c3ccccn3)CC2)c1	-11%	nt	0%	?	-6%	-4%[46.1 µM]	nt	-2%
Cc1cc(C)cc(NC(=O)c2nnn(Cc3cc(C)ccc3C)c2N)c1	-2%	-17%	-8%	nt	?	nt	-5.0%	-18%
COc1ccc(C(=O)Nc2ccc(N3CCOCC3)cc2)cc1S(=O)(=O)N1CCOCC1	1%	nt	-1%	0%	-7%	4%	nt	nt
CCOC(=O)c1cc(CC)sc1NC(=O)CC1Sc2ccc(C(F)(F)F)cc2NC1=O (stereo unspecified)	-17%	8%	?	0%	-18%	?	-2.0%	19%
CC(C(c1cccs1)c1c(N)n(C)c(=O)n(C)c1=O)[N+](=O)[O-] (stereo unspecified)	?	nt	-4%	nt	-9%	nt	nt	-5%
O=C1CC(c2ccccc2)CC(O)=C1C=NCCN1CCN(Cc2ccccc2)CC1 (stereo unspecified)	-10%	nt	0%	?	-7%	?	nt	-1%
Cc1ccc(C)c(S(=O)(=O)N2CCCOC2CNC(=O)C(=O)NCCC2=CCCCC2)c1 (stereo unspecified)	-5%	-4%	2%	?	?	-18%	-8.9%	5%
Cc1nc2cccnc2n1C1CCN(C(=O)Nc2ccc(Cl)cc2)CC1	nt	6%	nt	13%[46.1 µM]	8%	nt	-1.6%	nt
CCOc1ccc(CNS(=O)(=O)c2c(C)nc3sccn3c2=O)cc1OC	-18%	nt	7%	nt	-13%	nt	nt	5%
COc1ccc(CCNc2ncnc3c2oc2ccccc23)cc1OC	-3%	-1%	-11%	?	nt	?	-4.2%	-84%
COc1cccc(C(=O)C2CCCN(Cc3cccc4c3OCO4)C2)c1 (stereo unspecified)	0%	nt	0%	nt	-2%	nt	nt	-1%
Cc1cccc(OCC(=O)Nc2ccc(-c3nc4ccccc4o3)cc2)c1C	nt	-4%	nt	?	-5%	nt	0.7%	nt
COc1ccc(NS(=O)(=O)c2cc(NC(=O)c3ccco3)ccc2N2CCCCC2)cc1	-7%	?	16%	?	101%[activator]	14µM*	-6.0%	10%
COc1cccc(CNC(=O)CNC(=O)N2CC(=O)Nc3ccccc32)c1	2%	nt	5%	1%[46.1 µM]	18%	22%[46.1 µM]	nt	7%
O=C(/C=C/c1cccs1)c1ccc(Br)cc1	?	-4%	-3%	27%	-4%	2%	-4.8%	-10%
CC(=O)Nc1ccc(NC(=O)C2CCCCN2S(=O)(=O)c2ccc(C(C)(C)C)cc2)cc1 (stereo unspecified)	-7%	nt	-3%	?	-4%	?	nt	-13%
Cc1cccc(C(=O)N/N=C/c2ccc(OCC(=O)N3CCCCC3)cc2)c1	-5%	5%	2%	6%	nt	26%	-2.7%	-9%
CCOc1ccc(NC(=S)NC(=O)c2ccco2)cc1	-15%	nt	-4%	nt	83%[activator]	nt	nt	-64%
COc1cc(-c2ccno2)ccc1S(=O)(=O)N1CCN(c2ccccc2F)CC1	nt	11%	nt	-8%[46.1 µM]	0%	nt	-4.3%	nt
O=C(Nc1ccc(Br)cn1)c1cccc(C(=O)Nc2ccc(Br)cn2)c1	5%	nt	-1%	?	?	?	nt	-1%
O=C(CSCc1ccc(Cl)cc1)Nc1ccc2c(c1)OCCO2	9%	1%	-8%	4%	19%	-5%	-4.5%	-35%
COc1ccc(-n2c(-c3ccco3)nc3c(cnn3-c3ccc(C)cc3)c2=O)cc1	19%	25%	0%	?	40µM*!	1%&1%[46.1 µM]	-11%	-1%
COc1ccccc1-c1nc(SCC(=O)N2CCC(C(N)=O)CC2)n[nH]1	10%	nt	-6%	9%	11%	?	nt	nt
CC(=O)N1CCN(Cc2nc3cc(NC(=O)C4CCCCC4)ccc3n2C)CC1	-6%	6%	nt	-13%	-2%	15%	-2.4%	8%
O=C(c1cccn1-c1nnc(N2CCCCC2)s1)N1CCN(c2ccccc2)CC1	nt	3%	nt	10%[46.1 µM]	-1%	nt	-1.8%	nt
CC1=C(C#N)C(Nc2cccc(C)n2)(C(F)(F)F)C(=O)N1 (stereo unspecified)	7%	-7%	8%	7%	-4%	18%[46.1 µM]	9.1%	4%
O=C1NC(c2cccc(OCc3ccccc3)c2)Nc2ccccc21 (stereo unspecified)	15%	nt	nt	?	-51%	nt	nt	nt
CCOC(=O)c1[nH]ncc1CN1CCN(Cc2ccccc2)C(CCO)C1 (stereo unspecified)	-1%	nt	-2%	nt	-9%	nt	nt	6%
Cc1ccc(NC(=O)Cn2cnc3nc4c(cc3c2=O)CCCC4)cc1Cl	nt	-12%	nt	21%[46.1 µM]	-13%	nt	-0.8%	nt
Nc1nc(NCc2c(F)cccc2Cl)nn1-c1ccccc1	-2%	4%	-3%	9%	69%[activator]	0%[46.1 µM]	5.5%	-1%
O=C(C1CCN(Cc2cn[nH]c2-c2ccc(F)cc2F)CC1)N1CCOCC1	3%	nt	-1%	17%	3%	10%	nt	3%
CCOc1ccc(-n2c(N)c(C(=O)N3CCN(C)CC3)sc2=S)cc1	-5%	nt	1%	nt	23%	nt	nt	4%
Cn1c(=O)c2c(ncn2CC(=O)OCC(=O)NCc2ccc(Cl)cc2)n(C)c1=O	8%	6%	-11%	25%	-10%	19%	0.3%	7%
CCCS(=O)(=O)c1snnc1C	-8%	?	-1%	12%	-17%	16%	-2.0%	8%
Cn1c(=O)c2c(nc(N3CCOCC3)n2Cc2cccc(Br)c2)n(C)c1=O	nt	20%	nt	8%[46.1 µM]	?	8%[46.1 µM]	-2.6%	nt
CC(=O)Nc1ccc(NC(=O)CCc2c(C)noc2C)cc1	1%	nt	-3%	1%	-11%	3%	nt	nt
C=CCC(C)(NCc1ccccc1)c1ccccc1 (stereo unspecified)	2%	-1%	3%	24%	-21%	13%[46.1 µM]	3.7%	-7%
CC(C)(C)NC(=O)C1CCN(S(=O)(=O)c2ccc(Br)cc2)CC1	-1%	2%	0%	1%	-8%	-10%	1.5%	0%
Cc1c(-c2nc(N)nc(Nc3ccccc3)n2)oc2ccccc12	?	?	-18%	?	32%[activator]	?	-8.1%	-54%
CCC(C)(C(=O)NC1CCCCC1)N(CC1CCCO1)C(=O)Cc1cccs1 (stereo unspecified)	-2%	nt	-4%	6%	17%	?	nt	nt
COc1cc(-c2noc(C)n2)cc(OC)c1OC	-1%	nt	0%	1%	4%	-3%	nt	-1%
NNC(=O)CSc1c(-c2cccs2)[nH]c2ccccc12	-20%	-12%	6%	-19%	-24%	?	-5.8%	19%
CCC(C)n1c(=N)c(C(=O)NCc2ccco2)cc2c(=O)n3cc(C)ccc3nc21 (stereo unspecified)	nt	5%	nt	?	-18%	1%[46.1 µM]	-7.1%	nt
O=C1c2cccc(NCCCNCCO)c2C(=O)c2cccc(NCCCNCCO)c21	?	nt	nt	-16%[46.1 µM]	0%	?	nt	nt

The order is random; about 4.7% have a hit in one of these screens.
